Screens (PubChem)
A647 fluor = compound fluoresces in the A647 spectral region; 59,000 tested, under 10 active; max dye-equivalent concentration, M; Compound fluorescence, A647 channel (570/671 nm), Tris buffer; active means above 1 µM dye equivalent; inconclusive means 0.1 to 1 µM; inactive means 0.1 µM or less;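 note: values scaled relative to a standard on each plate; highest value over a series up to 38 µM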
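Compound fluorescence was measured in 100 mM Tris buffer, pH 8.0, after 15 min at room temperature, using 570 nm excitation and 671 nm emission filters. Signal was normalized to a per-plate Alexa 647 standard curve and expressed as dye-equivalent concentration at each compound concentration.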
Resorufin autofl = compound fluoresces in the resorufin spectral region; AID 588; hit rate 0.04% among 59,000; max dye-equivalent concentration, M; Compound fluorescence, resorufin region 547/598 nm, buffer; active compounds read high; active = above 10 nM dye equivalent; inconclusive = 1 to 10 nM; inactive = 1 nM or less; a few of its hits are not listed in these tables; note: highest value over a series up to 38 µM
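Intrinsic fluorescence profiled in the resorufin window (ex 547 nm, em 598 nm) after 15 min at room temperature in pH 8.0 Tris buffer (100 mM); responses normalized against a six-point resorufin standard series as dye-equivalent concentration.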
TSHR agonist = activates the human thyroid stimulating hormone receptor | P16473 | HEK293-CNG-TSHR cells (CNG channel as cAMP sensor), membrane potential dye, cAMP | Potency, µM (titrated, usually from 57.1 µM), without a hit: at the highest dose activation, usual class: activators | hit rate 0.48% among 73,000 | AID 926; active = well fitted activation curve of enough size with the parental cells flat; inconclusive = any curve in the parental cells; inactive = parental cells flat and receptor cells flat or falling; note: potency is the fitted concentration of half-maximal effect; % of control where 0% means no effect; weak receptor curves with flat parental cells got no call and are not listed
Target sequence (P16473 whole entry, looked up): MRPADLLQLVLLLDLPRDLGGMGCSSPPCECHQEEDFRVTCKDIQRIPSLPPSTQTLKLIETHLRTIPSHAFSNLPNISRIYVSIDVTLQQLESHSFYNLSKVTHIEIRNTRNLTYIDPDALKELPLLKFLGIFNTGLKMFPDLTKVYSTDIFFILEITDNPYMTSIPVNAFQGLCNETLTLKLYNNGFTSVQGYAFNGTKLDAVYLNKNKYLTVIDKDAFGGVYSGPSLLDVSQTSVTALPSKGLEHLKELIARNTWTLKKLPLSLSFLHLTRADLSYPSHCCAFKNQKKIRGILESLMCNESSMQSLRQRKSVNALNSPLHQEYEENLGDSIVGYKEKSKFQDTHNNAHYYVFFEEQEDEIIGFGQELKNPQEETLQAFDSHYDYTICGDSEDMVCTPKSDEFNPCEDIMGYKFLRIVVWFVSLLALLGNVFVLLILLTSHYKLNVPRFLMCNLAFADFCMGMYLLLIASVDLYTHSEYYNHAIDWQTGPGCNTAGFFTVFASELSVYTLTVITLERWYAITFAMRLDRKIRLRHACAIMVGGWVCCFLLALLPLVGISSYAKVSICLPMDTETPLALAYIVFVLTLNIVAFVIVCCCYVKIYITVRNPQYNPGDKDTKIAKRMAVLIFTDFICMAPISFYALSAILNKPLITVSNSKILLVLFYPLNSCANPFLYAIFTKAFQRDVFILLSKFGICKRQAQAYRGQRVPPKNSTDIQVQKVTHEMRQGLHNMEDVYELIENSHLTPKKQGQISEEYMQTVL
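HEK 293 cells stably expressing TSHR and a modified CNG channel, with CNG-only parental cells as counterscreen, were preloaded 60 min at room temperature with membrane potential dye containing 100 uM RO 20-1724. Compound exposure was 30 min, and depolarization was read as fluorescence at 590 nm.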
A488 fluor = A488 region autofluorescence | compound autofluorescence, A488 spectral region, dye equivalency; active compounds read high | hit rate 0.1% among 59,000 | max dye equivalency, M; active = above 10 nM dye equivalent; inconclusive = 1 to 10 nM; inactive = 1 nM or less; about half of its hits are not listed in these tables;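 note: highest value over a series up to 38 µM; compound alone in buffer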
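Compound autofluorescence was read in 100 mM Tris pH 8.0 after 15 min at room temperature, ex 480 nm/em 540 nm. Intensities were converted to A488 dye-equivalent concentration using an on-plate six-point A488 standard curve.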
AID923 = qHTS Assay for Allosteric/Competitive Inhibitors of Caspase-1: Spectroscopic Profiling in AFC Spectral Region | hit rate 1.1% among 75,000 | compound fluorescence, AFC spectral region (405/520 nm); almost no hit is shown here | Potency, µM (highest dose often 57.5 µM), without a hit: at the highest dose fluorescence increase, actives largely listed as activators; active = well fitted activation curve with a large enough effect; inconclusive = small, poorly fitted or top-dose-only effect;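 note: potency is the fitted concentration of half-maximal effect; 0% is about no effect; scaled to a free AFC standard on each plate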
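Compound autofluorescence profiled at 405 nm ex/520 nm em during kinetic caspase 1 run (50 nM enzyme, 5 uM Ac-WEHD-AFC, HEPES pH 7.5, 10 mM DTT). Titration up to 57 uM; baseline from regression intercept, normalized to AFC standard curve.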
Numbers without * were called inactive; i = inactive; ? = inconclusive; . = no result given; [ ] = another dose, or the depositor's remark. This is a subset; count on the stated rates, not on these rows.

SMILES | A647 fluor | Resorufin autofl | TSHR agonist | A488 fluor | AID923
CCc1ccc(N(C(C)=O)C2C=CS(=O)(=O)C2)cc1 (stereo not drawn) | 1.5e-08 | i | 11% | i | 3.9%
C=CCn1c(Oc2cc(C)ccc2C)nc2c1c(=O)n(C)c(=O)n2C | 2.5e-08 | i | 29% | i | -1.8%
CCN(CC)S(=O)(=O)c1cccc(C(=O)NC(C(=O)NC2=NCCS2)C(C)C)c1 (stereo not drawn) | 1.2e-08 | i | 2% | i | 0.0%
COc1ccc(-c2nc3n(c(=O)c2C#N)CCCS3)cc1 | 1e-09 | i | 11% | i | 3.9%
Cc1nc2c(=O)n(C)c(=O)[nH]c2n1Cc1ccccc1 | 1.9e-09 | i | . | i | .
CN(C)S(=O)(=O)c1ccc(C(=O)NCCOc2ccccc2)cc1 | 1.7e-08 | i | 4% | i | 0.8%
CC(C)N(CCNC(=O)C1CCC(=O)N1Cc1ccc(F)cc1)Cc1ccccc1 (stereo not drawn) | 1.6e-08 | i | ? | i | 0.1%
OC(COc1ccccc1Cl)CN1CCN(CC(O)COc2ccccc2Cl)CC1 (stereo not drawn) | . | . | 10% | . | 2.5%
Cc1onc(-c2ccccc2Cl)c1C(=O)Nc1ccc(-c2cn3cccnc3n2)cc1 | 3.8e-08 | i | 15% | i | 4.7%
NCCc1nnc(SCc2c(F)cccc2Cl)o1 | 1e-09 | i | 8% | i | -0.9%
Oc1ccccc1-c1nc(N2CCN(Cc3ccccc3)CC2)c2ccccc2n1 | 3.6e-08 | i | ? | i | -0.7%
CCOCCCN1C(=O)CN(C2CCCCCC2)C(=O)C1c1ccc(OC)cc1 (stereo not drawn) | 7.3e-09 | i | 21% | i | 0.2%
CN(C)CCCc1c2ccccc2nc2ccc(Cl)cc12 | 5.8e-08 | i | 12%[11.4 µM] | i | 0.7%[11.5 µM]
CC(NS(=O)(=O)c1ccccc1)C(=O)Nc1nccs1 (stereo not drawn) | 3.3e-08 | i | 1% | i | 1.4%
CCOC(=O)N1CCC(NC(=O)CCc2nc(-c3ccc(C)cc3)no2)CC1 | 1e-09 | i | 6% | i | -1.3%
N=C(C[C@@H](O)COc1ccccc1-c1ccccc1)N1CCCCC1 | . | . | ? | . | 0.0%
CCOC(=O)c1cnc2ccc(Br)cc2c1NCCO | . | . | 7%[11.4 µM] | . | 0.3%
CC(C)CC(NC(=O)C(NC(=O)OC(C)(C)C)C(C)C)C(=O)N1CCCC1C(N)=O (stereo not drawn) | 1e-09 | i | 7% | i | 1.4%
COc1ccc(-c2csc3nc(C)n(-n4cccc4)c(=O)c23)cc1OC | 6.7e-09 | i | 6% | i | 0.9%
CC(=O)Nc1cccc(NC(=O)c2cc3ccccc3o2)c1 | 3.3e-09 | i | 0% | i | 0.1%
CCCC(C(=O)N1CCOCC1)N1C(=O)C2C3C=CC(C3)C2C1=O (stereo not drawn) | . | . | -9% | . | 0.2%
Cc1cc(NC(=O)NC2CCCN2S(=O)(=O)c2ccc(Cl)cc2)no1 (stereo not drawn) | 1e-09 | i | 3% | i | -1.7%
COc1ccc(-c2noc(CN3C(=O)c4ccccc4C3=O)n2)cc1 | 1e-09 | i | 26% | i | 0.3%
CCOC(=O)c1cnn(-c2ncnc3c2oc2ccccc23)c1N | 3.5e-08 | i | 0% | i | 0.8%
c1ccc(Oc2cccc(OCCCn3cncn3)c2)cc1 | 3.8e-09 | i | . | i | 0.4%
COc1ccccc1NC(=O)CN(c1ccccc1F)S(C)(=O)=O | 1e-09 | i | 4% | i | 1.9%
CCOc1ccccc1NC(=O)Cn1cnc2c(nnn2-c2cccc(OC)c2)c1=O | . | . | 6% | . | -4.4%
CC(C)N(CCCNC(=O)C1CCN(S(=O)(=O)N2CCOCC2)CC1)Cc1ccccc1 | 6.1e-09 | i | -1%[11.4 µM] | i | -1.2%
COC(=O)c1nc2cc(C)ccn2c1F | . | . | 1% | . | 2.5%
CC(=O)N1CCc2cc(S(=O)(=O)NCCC(=O)Nc3cccc(C)c3)ccc21 | 2.6e-09 | i | 2% | i | -0.2%
CN1CCN(C(=O)c2ccc(-n3c(=O)c(=O)[nH]c4ccccc43)cc2)CC1 | . | . | 0% | . | 5.2%
CCN(CC)c1ncnc2sc(C(=O)N3CCN(c4ccc(OC)cc4)CC3)c(C)c12 | 1.1e-08 | i | 2%[11.4 µM] | i | 1.1%
O=C(Nc1ccc2nn(-c3ccccc3)nc2c1)c1ccc2c(c1)OCO2 | 1e-09 | i | 12% | i | -1.0%
CC(C)COc1cc(=O)[nH]c(SCC(C)C)n1 | 6.2e-09 | i | ? | i | 3.1%
CC1(C)CC2CC(C)(CN2C(=O)COC(=O)Cn2[nH]c(=O)c3ccccc3c2=O)C1 (stereo not drawn) | 8.4e-09 | i | -3% | i | -0.3%
N#Cc1nc(Cc2ccccc2)oc1N1CCC(C(N)=O)CC1 | 2.8e-08 | i | -48%[inhibitor] | i | 1.2%
CCNc1cc(=O)n(C)c(=O)n1C | 1e-09 | i | 4% | i | 1.9%
COC(=O)c1ccccc1NC(=O)COC(=O)c1ccc(C)c(NC(=O)c2ccco2)c1 | 8e-09 | i | ? | i | 2.3%
COc1ccc2[nH]c(=O)c(-c3noc(-c4ccccc4)n3)cc2c1 | 1.5e-09 | i | 5% | i | 2.2%
Cc1ccc(C(=O)CSc2nnc(COc3cccc(C)c3)o2)cc1 | 3.6e-09 | i | ? | i | 1.0%
CCC1S/C(=C(\C#N)C(=O)NCc2ccco2)N(c2ccc(F)cc2)C1=O (stereo not drawn) | 1e-09 | i | -7% | i | 1.3%
CC(=O)NCCNc1ncnc2ccc(-c3ccccc3Cl)cc12 | 6.8e-09 | i | 4% | i | 3.6%
CCOC(=O)c1cc2sc(C)cc2n1CC(=O)Nc1cccc(C)c1C | 4e-08 | i | ? | i | -0.3%
O=C(CN1CCN(Cc2ccc(Cl)cc2)C1=O)NCCN1CCCC1 | . | . | 8% | . | 1.4%
CCN1CCCC1CNCc1ccc(Cl)cc1Cl (stereo not drawn) | 6.6e-09 | i | . | i | -1.4%
O=C(NCc1ccccc1)NC1(C(=O)N2CCCC2)CCCCC1 | 1e-09 | i | 8% | i | 0.4%
COc1ccc2c(c1OC)C(=O)OC2CC(=O)c1ccc2c(c1)OCO2 (stereo not drawn) | 1e-09 | i | 10% | i | -0.7%
CN(C)c1ccc(CN(C(=O)c2ccco2)C2CCS(=O)(=O)C2)cc1 (stereo not drawn) | 1e-09 | i | 4% | i | 0.1%
COc1ccc(CCNC(=O)CN2CCN(c3cccc(Cl)c3)CC2)cc1OC | 2.3e-08 | i | ? | i | 1.3%
CCc1ccc2[nH]c(=O)c(C(c3nnnn3CCOC)N3CCN(c4ccc(F)cc4)CC3)cc2c1 (stereo not drawn) | 6.6e-08 | i | ? | i | 2.0%

(next part)
SMILES | A647 fluor | Resorufin autofl | TSHR agonist | A488 fluor | AID923
O=C(COc1ccccc1)Nc1ccc2c(c1)nc1n2CCSC1 | 2.2e-08 | i | -21% | i | 4.3%
Cc1ccccc1-n1nnnc1SCC(=O)Nc1ccc(S(=O)(=O)N2CCCC2)cc1 | 3.2e-08 | i | 0% | i | 1.7%
Cn1cccc1C(=O)NC(=O)COC(=O)c1ccccc1Sc1ccccc1C#N | 1e-09 | i | 6% | i | -1.2%
O=C1C(SC(F)(F)C(F)F)=C(C(F)(F)F)OC2C3C=CC(C3)C12 (stereo not drawn) | 1e-08 | i | 2% | i | -1.7%
COc1ccccc1-n1c(SCC(=O)O)nnc1-c1ccc(S(=O)(=O)N2CCCCC2)cc1 | 2e-08 | i | 3% | i | 0.1%
CC1CCN(C(=O)CN(C)S(=O)(=O)c2cccc3nsnc23)CC1 | 2.1e-08 | i | 5% | i | -0.7%
Clc1ccccc1Cn1nnc2c(Nc3ccccc3)ncnc21 | 1e-09 | i | ? | i | -2.7%
COc1cc(NC(=O)c2ncn[nH]2)cc(OC)c1OC | 8e-09 | i | -1% | i | -1.6%
Cc1nnc(SCCn2c(N3CC(C)CC(C)C3)nc3c2c(=O)n(C)c(=O)n3C)s1 (stereo not drawn) | 4.3e-08 | i | 2% | i | -0.3%
COc1cc(NS(=O)(=O)c2ccc(NS(=O)(=O)c3ccccc3)cc2)nc(OC)n1 | . | . | 2% | . | -1.2%

Brought forward from above: 3 entries, followed by the next part.
SMILES | A647 fluor | Resorufin autofl | TSHR agonist | A488 fluor | AID923
COc1cc(NC(=O)c2ncn[nH]2)cc(OC)c1OC | 8e-09 | i | -1% | i | -1.6%
Cc1nnc(SCCn2c(N3CC(C)CC(C)C3)nc3c2c(=O)n(C)c(=O)n3C)s1 (stereo not drawn) | 4.3e-08 | i | 2% | i | -0.3%
COc1cc(NS(=O)(=O)c2ccc(NS(=O)(=O)c3ccccc3)cc2)nc(OC)n1 | . | . | 2% | . | -1.2%
O=C(O)CCCC[C@@H]1SC[C@H]2NC(=O)N[C@H]12 | 1e-09 | i | -2% | i | .
Cc1cc(C)cc(-n2nnc(C(=O)NCc3ccc(Cl)cc3)c2N)c1 | 5.9e-09 | i | 8% | i | -0.1%
CC(C)Sc1nc2c(cnn2-c2ccc(F)cc2)c(=O)[nH]1 | . | . | ? | . | -0.3%
CCOC(=O)COc1ccc(N)cc1CC(NC(C)=O)(C(=O)OCC)C(=O)OCC | . | . | -1% | . | 2.7%
S=C(c1ccc(-c2cccc(Cl)c2)o1)N1CCOCC1 | . | . | 27% | . | -0.2%
COc1cc(CNC(=O)c2ccc(Cn3nc(C)c(Cl)c3C)o2)cc(OC)c1 | 1e-09 | i | 8% | i | 0.7%
COc1cc(C)c(S(=O)(=O)NCc2cccs2)cc1C | 2.8e-09 | i | 7% | i | 0.8%
COc1ccccc1N1CCN(S(=O)(=O)Cc2ccccc2Cl)CC1 | 1e-09 | i | ? | i | 1.3%
CCOc1ccc(C(=O)c2ccc(OCC)c(N)c2)cc1N | . | . | 5% | . | 4.3%
CCCC(NS(=O)(=O)c1ccc(OC)cc1)C(=O)O (stereo not drawn) | . | . | 12% | . | -0.4%
c1ccc2oc(-c3nn4c(Cn5cnc6ccccc65)nnc4s3)cc2c1 | 2.6e-09 | i | ? | i | -0.6%
CCN1CCc2c(C#N)c(N3CCCCC3)nc(NCc3ccccc3)c2C1 | 1.7e-08 | i | . | i | .
Cc1c(C(=O)N2CCOCC2)oc2ccc(S(=O)(=O)N3CCCC3)cc12 | 3e-08 | i | -3%[11.4 µM] | i | -0.3%
CCN(CC)CCCN1C(=O)C(O)=C(C(=O)c2ccco2)C1c1ccc(C)o1 (stereo not drawn) | 7e-09 | i | 2% | i | 5.0%
CN(C)c1nc(N2CCCCC2)nc(N2CCCCC2)n1 | . | . | 0% | . | 0.9%
CCC1CCCCN1CCNS(=O)(=O)c1ccc2c(c1)CCN2C(C)=O (stereo not drawn) | 2e-08 | i | . | i | -0.7%
COC(=O)[C@@]1(Cc2ccc(OC)cc2)[C@H]2c3cc(C(=O)N(C)C)n(CCc4ccccn4)c3C[C@H]2CN1C(=O)c1ccccc1 | . | . | 27% | . | 7.0%

Whole records as entered above. Order of values: A647 fluor | Resorufin autofl | TSHR agonist | A488 fluor | AID923
CN(C)c1nc(N2CCCCC2)nc(N2CCCCC2)n1 in the list: . | . | 0% | . | 0.9%
CCN1CCc2c(C#N)c(N3CCCCC3)nc(NCc3ccccc3)c2C1 in the list: 1.7e-08 | i | . | i | .
CCC1CCCCN1CCNS(=O)(=O)c1ccc2c(c1)CCN2C(C)=O (stereo not drawn) in the list: 2e-08 | i | . | i | -0.7%
CCN(CC)CCCN1C(=O)C(O)=C(C(=O)c2ccco2)C1c1ccc(C)o1 (stereo not drawn) in the list: 7e-09 | i | 2% | i | 5.0%
COC(=O)[C@@]1(Cc2ccc(OC)cc2)[C@H]2c3cc(C(=O)N(C)C)n(CCc4ccccn4)c3C[C@H]2CN1C(=O)c1ccccc1 in the list: . | . | 27% | . | 7.0%
